From PubChem BioAssay
Anthrax LT inh = qHTS Assay for Anthrax Lethal Toxin Internalization | Cells, anthrax lethal toxin internalization, FRET ratio (460/530) | Potency, µM (doses to about 40 µM), without a hit: at the top dose activity change, negative = inhibition, most hits filed as inhibitors | 70,000 compounds, 0.67% hits; active = well fitted falling ratio curve with the 530 nm signal flat; inconclusive = other ratio curves, or a change in one channel alone; inactive = flat curves in the ratio and both channels; the % refers to the ratio; further: on the % scale 0 is the no-effect control and ±100 the full control effect; nearly all actives have a fitted effect of over 50% in size; tested in ME-180 cells; beta-lactamase reporter
SmPrx2 inh = Schistosoma Mansoni Peroxiredoxins (Prx2); S. mansoni Prx2 activity coupled to TGR/GSH (TGR is thioredoxin glutathione reductase), NADPH fluorescence loss, qHTS; some inactives read as strong as hits; AID 448, 2006; 65,000 compounds, 0.07% hits; Schistosoma mansoni peroxiredoxin 2 (Prx2); Potency, µM; active means full or partial inhibition curve with a strong effect at the top dose; inconclusive means weaker partial or single-point curve; inactive means no accepted curve; further: series up to 57 µM; many of its hits are not listed in these tables
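Activity is read as the drop in NADPH fluorescence (365/450 nm), recorded every 30 sec for 8 min after H2O2 addition. Prx2 is coupled to TGR-driven NADPH oxidation through glutathione, in phosphate buffer pH 7.4.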
Numbers without * were called inactive; ? = inconclusive; / = no result given; & = joins results of further samples; [ ] = remark or other dose. Potency means the concentration at half of the fitted maximal effect.

SMILES | Anthrax LT inh | SmPrx2 inh
O=C(Nc1nc2ccccc2n1CCN1CCOCC1)c1cn(-c2ccccc2)nc1-c1ccccc1 | -4.2% | >57
CN1CCN(CCc2ccc(Cl)c(Cl)c2)CC1 | ? | >57
COC(=O)CN(C(=O)CSc1nnc(-c2cccc(OC)c2)o1)c1ccc(OC)cc1 | 2.6% | >57
CCN1C(=O)/C(=C\N2CCN(C)CC2)SC1=S | ? | >57
Cc1ccc(S(=O)(=O)N2CCCC2C(=O)NCc2ccco2)cc1 (stereo not given) | 0.3% | >57
c1ccc(-c2nn3c(-c4ccco4)nnc3s2)nc1 | ? | >57
O=C(COC(=O)Cc1ccsc1)NC1CCCCCC1 | 1.5% | >57
CCN(CC)c1ccc(N=Cc2c(O)n(CCC3=CCCCC3)c(=O)[nH]c2=O)cc1 | ? | >57
COC(=O)c1cc2ccsc2n1CC(=O)Nc1ccc(N(C)C)cc1 | -3.1% | >57
COc1ccc(N(CC(=O)Nc2ccc(C)c(C)c2)S(=O)(=O)c2c(C)n[nH]c2C)cc1 | 2.1% | >57
C=CCn1c(SCc2ccc(Cl)cc2)nc2c1c(=O)[nH]c(=O)n2C | -4.9% | >57
CO[C@@H]1C[C@H](O[C@H]2[C@@H](C)[C@H](O[C@@H]3O[C@@H](C)C[C@@H](N(C)C)[C@@H]3OC(C)=O)[C@H](C)C[C@]3(CO3)C(=O)[C@H](C)[C@H](OC(C)=O)[C@H](C)[C@H](C)OC(=O)[C@@H]2C)O[C@H](C)[C@@H]1OC(C)=O | -3.9%[3.58 µM] | >57
COc1ncc2nc(C)c(=O)n(C)c2n1 | -11.8% | >57
O=S(=O)(c1ccc(N2CCN(S(=O)(=O)c3ccc4c(c3)OCCO4)CC2)nc1)N1CCCC1 | -0.6% | >57
CCOC(=O)c1nnn(-c2nonc2NC(C)=O)c1C | 0.0% | >57
CCN1C(=O)CC(N2CCC(C(=O)N3CCOCC3)CC2)C1=O (stereo not given) | ? | >57
Cn1c(=O)[nH]c(=O)c2c1nc(NCc1ccco1)n2CCCc1ccccc1 | / | >57
COc1cc(C(=O)N2CCN(C(=O)C3CC3)CC2)cc(OC)c1OC | -7.8% | >57
O=C(c1ccco1)N1CCN(c2nc3ccsc3c(=O)s2)CC1 | 8.4% | >57
COc1ccc(CCN2CC(C(=O)O)CC2=O)cc1 (stereo not given) | 4.3% | >57
CC1(C)CC(=O)c2sc(NC(=O)CN3CCOCC3)nc2C1 | -1.5% | >57
CN1CCCN(C(=O)c2ccc(Cl)c(S(=O)(=O)N(C)c3ccccc3)c2)CC1 | ? | >57
CCc1ccccc1NC(=O)N[C@@H](C)C(=O)O | -9.5% | >57
CCC(Sc1nccn1C)C(=O)Nc1nnc(C)s1 (stereo not given) | -10.2% | >57
Cc1ccc(C)c(/C(O)=C2\C(=O)C(=O)N(CCCN3CCOCC3)C2c2cccnc2)c1 (stereo not given) | -0.7% | /
Further records follow.
SMILES | Anthrax LT inh | SmPrx2 inh
CCOC(=O)C1=C(C)Nc2nnnn2C1c1c[nH]c2ccccc12 (stereo not given) | -13.8% | >57
N#CCSc1n[nH]c2nc3c(c(=O)n12)C1(CCCC1)Cc1ccccc1-3 | / | >57
COc1ccc(-c2nc(C#N)c(NCCCN(C)C)o2)cc1OC | ? | >57
C/C(=C1/SC(N2CCCC2)=NC1=O)c1ccc(Br)cc1 | 17.1% | >57
COc1ccc(N2C(=O)CN=C2Nc2cccc(C)c2C)cc1OC | -3.0% | >57
CCN(CC)C(=O)CSc1nnc(-c2ccc(F)cc2)n1N | 14.9% | >57
O=C(c1ccncc1)C12CN3CN(CN(C3)C1)C2 | -5.2% | /
Cc1c(N(C)CS(=O)(=O)O)c(=O)n(-c2ccccc2)n1C | 0.3%[3.58 µM] | >57
C=CC(=O)OCCO | -6.0% | /
COc1ccc(OC)c(CC(=O)O)c1 | -6.5% | >57
CCCOC(=O)c1ccc(NC(=O)CCC(=O)OCC)cc1 | -28.6% | /
Cc1ccc(OCC(=O)Nc2cc(-c3nn4c(C)nnc4s3)ccc2C)cc1 | -1.6% | >57
CN1CCCc2cc3c(C(F)(F)F)cc(=O)oc3nc21 | ? | /
COc1ccc(S(=O)(=O)N(C)CC(=O)NC2CCCC2)cc1Cl | 2.8% | >57
C#CC(C)(C)NC(=O)c1ccccc1OC | -9.5% | >57
OC(COc1cccc(OCC(O)CN2CCOCC2)c1)CN1CCOCC1 (stereo not given) | -9.9% | >57
CN1C(=O)c2ccccc2C(C(=O)NCCCN2CCCC2)C1c1c[nH]c2ccccc12 (stereo not given) | 2.3% | >57
COc1ccc(S(=O)(=O)Nc2ccc3c(c2)OCO3)cc1OC | -2.8% | >57
Cc1ccc(-c2csc3nnc(SCC(=O)Nc4nsc(-c5ccccc5)n4)n23)cc1 | -12.5% | >57
CC(=O)N1CCN(C(=S)c2ccc(N(C)C)cc2)CC1 | 4.1% | /
Cc1cc(C)nc(NC(=O)CN2C(=O)c3ccccc3C2=O)n1 | -13.6% | /
CCC(=O)c1c(O)n(C2CCCCCC2)c(=O)[nH]c1=O | 4.2% | >57
Nc1c(C(=O)N2CCOCC2)sc(=S)n1-c1ccccc1 | -5.2% | >57
Cc1ccc(OCC(O)CN2CCN(Cc3ccc4c(c3)OCO4)CC2)c(C)c1 (stereo not given) | ? | >57
CSCCC(NC(=O)c1cc(CC(C)C)oc1C)C(=O)O (stereo not given) | -8.1% | >57
(more compounds)
SMILES | Anthrax LT inh | SmPrx2 inh
Oc1ccc(-c2nc3cnccn3c2Nc2ccc3c(c2)OCCO3)cc1 | 25.0% | >57
COc1ccc(OC)c(CN2CCN(C(=O)c3cccs3)CC2)c1 | 8.1% | >57
COc1ccccc1NC(=O)N1CCc2[nH]c3ccc(Cl)cc3c2C1 | ? | >57
CN1CCN(c2ccnc(-c3cccc(NS(C)(=O)=O)c3)n2)CC1 | -16.7% | >57
Cc1ccc(N=Nc2c(O)ccc3cc(S(=O)(=O)O)ccc23)cc1 | -14.0%[8 µM] | >57
OCCSc1nncn1/N=C/c1c[nH]c2ccccc12 | 8.2% | >57
O=C(NCc1cccnc1)C1CC(=O)N(c2ccc(Cl)cc2)C1 (stereo not given) | / | >57
CC(=O)Cc1nsc(NC(=O)c2ccc(COc3ccccc3)o2)n1 | -18.3% | >57
Cn1c(=O)c(=O)n(C)c2cc(S(=O)(=O)NCCc3ccccc3)ccc21 | -5.3% | >57
COc1ccc(-c2c3c(=O)n(C)c(=O)n(C)c3cn2C2CCCCC2)cc1 | -7.4% | >57
NC[C@H]1O[C@@H](n2cnc3c(=O)[nH]c(N)nc32)[C@@H](O)[C@@H]1O | 5.0%[8 µM] | >57
Cc1cc(C(=O)NCCC2=CCCCC2)c(C)o1 | -3.0% | >57
Cn1c(NCc2ccco2)nc2c1c(=O)n(Cc1ccc(Cl)cc1Cl)c(=O)n2C | -10.4% | >57
Cc1cc2ccccc2n1CCNC(=O)C(C)C | -6.1% | >57
Cc1cccc(-c2c3c(=O)n(C)c(=O)n(C)c3cn2-c2ccccc2O)c1 | 5.9% | >57
CN(C)c1ccc(C(=S)NCc2ccco2)cc1 | -9.0% | >57
CNC(=O)C1(C)C=CC2(CCCCC2)N1C(C)=O (stereo not given) | 9.6% | /
COc1ccc(NC(=O)c2cncc(Br)c2)c(S(=O)(=O)N2CCOCC2)c1 | -1.7% | >57
Cn1cccc1Cc1nnc(SCC(=O)N2CCCC2)n1CCc1ccccc1 | 26.3% | >57
CCN(CC)CCn1c(SCC(=O)NCc2ccco2)nc2c(sc3ccccc32)c1=O | -27.6% | >57
COC(=O)C1=C(C)NC(C)=C([N+](=O)[O-])[C@H]1c1ccccc1C(F)(F)F | -19.2%&-2.0% | >57&>57
CSc1ccc2c(c1)c(CCN)c(C)n2Cc1ccccc1Cl | ? | >57
CCN=c1sc(C(=O)NCCc2ccccc2)cc(=O)n1CC | ? | >57
CCN(CC)c1cccc(O)c1 | -2.6% | /
COc1cccc(OCCn2ccnc2)c1 | -5.8% | >57
Continuation:
SMILES | Anthrax LT inh | SmPrx2 inh
O=C(Cc1c(F)cccc1Cl)Nc1ccon1 | 2.3% | >57
O=S(=O)(c1ccc2ccccc2c1)N1CCN(S(=O)(=O)c2ccc3ccccc3c2)CC1 | -5.6%[8 µM] | >57
CC1(C)C(=O)Nc2ccccc2N1C(=O)COC(=O)Cn1cnc2ccccc2c1=O | -7.2% | >57
CC1(C)Oc2ccc(C(=O)NC3CC3)cc2N(CC(=O)N2CCOCC2)C1=O | 13.3% | >57
O=C(O)Cn1cc(C(=O)C2CC2)c2ccccc21 | -6.4% | >57
CC(C)C(=O)Nc1ccc(Nc2ccccc2)cc1 | -11.9% | /
O=C1CCC(=O)N1CN(C(=O)c1ccco1)c1ccccc1 | 13.0% | >57
CN1CCN(c2ncc3nc(-c4cn(C)c5ccccc45)c(=O)n(Cc4cccs4)c3n2)CC1 | ? | >57
CN(C)c1ccc(C2=NOC(CN3C(=O)c4ccccc4S3(=O)=O)C2)cc1 (stereo not given) | ? | >57
CC(C)COc1ccc(C(=O)NCc2ccco2)cc1 | -16.3% | >57
CCOC(=O)c1ccc2[nH]c(-c3ccc(S(=O)(=O)F)cc3)cc(=O)c2c1 | 2.0%[8 µM] | >57
CCOC(=O)c1c(C)[nH]c(C(=O)OCC(=O)N2c3ccccc3CC2C)c1C (stereo not given) | ? | >57
CCCCOc1ccc(/C=c2\sc3ncnn3c2=O)cc1 | ? | >57
COc1cc(Cl)c(S(=O)(=O)NCCCN2CCOCC2)cc1Cl | 6.0% | >57
CS(=O)(=O)N1CCCC(C(=O)NCc2ccc(F)cc2Cl)C1 (stereo not given) | -11.3% | >57
Cc1nc2ccccc2c(=O)n1NC(=O)COc1ccccc1 | -6.4% | /
CCOC(=O)C1CCCN(C(=O)Cc2c(C(=O)O)[nH]c3ccccc23)C1 (stereo not given) | 3.5% | >57
Cc1c(NC(=O)c2cnn3cccnc23)c(=O)n(-c2ccccc2)n1C | -15.6% | >57
CCN(CC)C(=O)CSc1nc2ncccc2[nH]1 | -8.7% | >57
CC(=O)Nc1ccc(NC(=O)c2oc3cc(C)c(C)cc3c2C)cc1 | 3.0% | >57
Cc1cc2n(n1)C(c1ccsc1)Nc1ccccc1-2 (stereo not given) | -7.9% | >57
c1cncc(CNc2ncn[nH]2)c1 | 0.1%[8 µM] | >57
Cc1nnc(NCCN2CCOCC2)[nH]c1=O | ? | >57
CN(C)c1ccc(N=Nc2cccc3ccoc23)cc1 | ? | >57
CCOc1ccc(C(C)C)cc1S(=O)(=O)Nc1ccc(Cl)cn1 | 3.0% | >57

Molecules shown so far containing a CF3 group, in the order listed:
SMILES | Anthrax LT inh | SmPrx2 inh
CN1CCCc2cc3c(C(F)(F)F)cc(=O)oc3nc21 | ? | /
COC(=O)C1=C(C)NC(C)=C([N+](=O)[O-])[C@H]1c1ccccc1C(F)(F)F | -19.2%&-2.0% | >57&>57

Next compounds follow:
SMILES | Anthrax LT inh | SmPrx2 inh
Cc1ccc2oc(C(=O)NCc3ccc4c(c3)OCO4)c(C)c2c1 | -28.4% | >57
COc1ccc(S(=O)(=O)N(C)CC(=O)Nc2ccccc2OC)cc1C | 2.0% | >57
COc1ccc(-n2c(Cc3cccn3C)nnc2SCC(=O)Nc2ccc(Cl)cc2)cc1 | ? | >57
O=[N+]([O-])c1cccc2c([N+](=O)[O-])cccc12 | -9.5% | /
COC(=O)c1ccc(NC(=O)CSc2nnc(CNc3ccc(F)cc3)n2C)cc1 | 3.2% | >57
O=C(CSc1nnc(-c2ccco2)n1Cc1ccccc1)c1ccccc1 | ? | >57
CCOC(=O)c1ccc(S(=O)(=O)N2CCN(CCC#N)CC2)cc1 | 0.6% | >57
CCOC(=O)CNC(=O)CSc1nnc(-c2ccco2)n1N | / | >57
CCC(CC)C(=O)Nc1cccc(C(=O)Nc2ccc3c(c2)OCO3)c1 | ? | >57
COc1ccc(CCn2c(O)c(C=NCc3cccnc3)c(=O)[nH]c2=O)cc1OC | -1.2% | >57
Cn1c(C(=O)NCCCN2CCN(c3ccccc3F)CC2)cc2c(=O)n(C)c3ccccc3c21 | ? | >57
CC(=O)Nc1cc(C(F)(F)F)ccc1N1CCOCC1 | 1.5% | >57
COc1ccc(CC(=O)N2CCCc3ccccc32)cc1OC | 10.2% | >57
CCn1cnc2sc(-c3ccccc3)cc2c1=O | -0.5% | >57
COC(=O)c1cc(Br)c(=O)n(CCC2=CCCCC2)c1 | -3.2% | >57
CCOC(=O)CSc1nccc(N(C)C)c1C#N | 4.2% | /
N[C@@H](CCCCP(=O)(O)O)C(=O)O | -9.5% | >57
O=C1CC(C(=O)Nc2ccccc2)N=C(N2CCCCC2)N1 (stereo not given) | -2.2% | >57
C(=N\n1cnnc1)/c1ccc(N2CCOCC2)cc1 | 21.2% | >57
COCC(=O)Nc1ccccc1NC(C)=O | ? | >57
O=C(C1CC2CCC1C2)N1CCN(Cc2ccc3c(c2)OCO3)CC1 (stereo not given) | -7.8% | >57
ClC(Cl)Br | 1.2% | /

Profiles from above. Order of screens: Anthrax LT inh, SmPrx2 inh
`Cc1cc2ccccc2n1CCNC(=O)C(C)C` is listed as -6.1%, >57
`COC(=O)C1=C(C)NC(C)=C([N+](=O)[O-])[C@H]1c1ccccc1C(F)(F)F` is listed as -19.2%&-2.0%, >57&>57
`O=C(O)Cn1cc(C(=O)C2CC2)c2ccccc21` is listed as -6.4%, >57
`CCN(CC)C(=O)CSc1nnc(-c2ccc(F)cc2)n1N` is listed as 14.9%, >57

These rows are one share of the data; count on the stated rates, not on these rows.
